Mtb MenB inh: Mtb MenB enzyme inhibition; P9WNP5; inhibition, %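 (about 12 µg/mL by stock and volumes)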; 100,000 compounds, 0.43% hits; MenB enzyme assay, absorbance read-out; some hits fall short of the stated cut; AID 540299;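 active means mean of two replicates above 30%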;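 further: 0% = no compound and 100% = wells with inactive enzyme; the first replicate is given; strong numbers were not always called active; inactives centre near -10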
Target sequence (P9WNP5 whole entry, looked up): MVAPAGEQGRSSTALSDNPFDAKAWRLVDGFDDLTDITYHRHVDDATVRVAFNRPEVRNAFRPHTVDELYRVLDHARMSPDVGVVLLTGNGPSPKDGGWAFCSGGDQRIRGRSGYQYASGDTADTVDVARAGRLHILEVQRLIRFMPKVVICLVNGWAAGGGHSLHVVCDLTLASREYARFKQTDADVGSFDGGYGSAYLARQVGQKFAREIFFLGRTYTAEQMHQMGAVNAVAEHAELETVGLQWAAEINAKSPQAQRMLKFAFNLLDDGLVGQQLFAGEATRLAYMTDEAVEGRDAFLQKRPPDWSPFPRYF
Mtb MbtI inh: MbtI salicylate synthase inhibition; P9WFX0; purified MbtI enzyme, fluorescence intensity read-out; inhibition, %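 (about 17 µg/mL by stock and volumes)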; 100,000 compounds, 0.89% hits;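 active means above 50% in both replicates, above 80% if mildly self-fluorescent; inactive means the rest, strongly fluorescent compounds included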;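 further: 0% = mean of negative and 100% = mean of positive controls; one replicate is shown; some compounds called inactive have numbers as strong as hits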
Polio RdRp inh: poliovirus RNA polymerase inhibition. poliovirus polymerase elongation, fluorescence polarization; hits give low values. 150,000 compounds, 0.66% hits. % elongation, % (compound at 16.7 µg/mL); in the data active means % elongation below about 90%; further: some results filed as inactive read as strong as hits
Target sequence (P03300 1749-2209 limits assumed): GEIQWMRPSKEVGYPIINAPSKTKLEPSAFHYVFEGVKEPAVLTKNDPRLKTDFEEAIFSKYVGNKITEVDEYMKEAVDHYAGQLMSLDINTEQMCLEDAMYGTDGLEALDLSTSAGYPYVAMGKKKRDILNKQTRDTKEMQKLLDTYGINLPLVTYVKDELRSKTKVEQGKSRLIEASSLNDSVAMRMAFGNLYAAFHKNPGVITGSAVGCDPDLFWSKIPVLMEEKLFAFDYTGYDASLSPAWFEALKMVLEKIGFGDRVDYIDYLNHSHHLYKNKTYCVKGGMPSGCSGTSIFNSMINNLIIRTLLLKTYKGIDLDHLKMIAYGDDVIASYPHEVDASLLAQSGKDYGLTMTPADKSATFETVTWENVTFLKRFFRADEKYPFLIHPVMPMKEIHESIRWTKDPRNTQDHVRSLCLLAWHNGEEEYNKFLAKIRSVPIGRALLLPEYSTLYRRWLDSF
Polio RdRp inh intensity: second read-out of Polio RdRp inh, no call of its own (marks repeat the call); % elongation; measured here: total intensity read-out; formula for this scale not given here;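 total fluorescence in place of polarization; lower means less elongation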
* hit, by the source's call; x = not tested or not shown; & = joins results of further samples.

SMILES	Mtb MenB inh	Mtb MbtI inh	Polio RdRp inh	Polio RdRp inh intensity
CC(C)(C)c1nc2c(o1)NC(N)=C(C(N)=O)C2c1ccc(OCC#N)cc1 (configuration not stated)	-4	x	101	104
CCSc1nc2c(c(=O)n1-c1ccc(F)cc1)SCC2	0	-4	100	99
O=C(Nc1ccccc1Cl)c1ccccc1O	-26	107	98	104
CCNc1nc(NCC)nc(Oc2ccc(=O)[nH]n2)n1	-9	0	101	104
c1ccc(C2=NNC(c3nc4ccccc4[nH]3)C2)cc1 (configuration not stated)	-63	-176	101	102
CC(C)Cc1cc(C(=O)O)nc(=O)[nH]1	38*	8	99	99
NC(N)=Nc1nc(=O)c2ccccc2s1	-11	10	100	105
O=C(ON1C(=O)c2ccccc2C1=O)c1ccco1	-21	-52	102	98
CCN(CC)S(=O)(=O)c1ccc(Br)cc1	x	-12	105	106
O=C(O)C1Cc2ccccc2N1C(=O)c1ccccc1 (configuration not stated)	3	4	104	103
O=C(Cn1c(=O)oc2ccccc21)NCC1CCN(Cc2ccccc2F)CC1	-17	6	100	100
CN=Cc1cc(-c2ccccc2)oc1S	-155	53	101	99
CCc1ccccc1NC(=O)C1CCCN1S(=O)(=O)c1cccc2nsnc12 (configuration not stated)	-1	2	100	103
CCCn1nnnc1SCC(=O)N1CCCC1	-10	-3	102	103
OCC12CC3CC(C1)CC(CO)(C3)C2	-2	-1	101	107
CC(=O)[C@@]1(O)CCC2C3C[C@H](C)C4=CC(=O)C=CC4(C)[C@@]3(F)[C@@H](O)C[C@@]21C (some centres not stated)	5	-6	101	103
O=C(CCC(=O)N1CCSc2ccccc21)NCc1cccs1	7	-8	99	103
C=CCn1c(=O)/c(=C\c2ccccn2)s/c1=C(/C#N)C(=O)NCC1CCCO1 (configuration not stated)	-15	-17	47	241
CC(C)Sc1nc2ccccc2n2cnnc12	-5	-14	100	107
Nc1nc(N)nc(CSc2nnc(-c3ccccc3)n2-c2ccc(F)cc2)n1	1	-1	100	101
COc1ccc(Br)cc1CN1CCN(C2CCCCCC2)CC1	12	-10	98	101
COc1ccc(C2CC(c3cc(Cl)ccc3O)=NN2)cc1OC (configuration not stated)	-76	10	107	112
CC(=O)N1c2ncnn2C(c2ccc(Cl)cc2)CC1c1ccccc1 (configuration not stated)	-60	0	103	98
O=C(CN1CCOc2ccccc21)N1CCC2(CC1)OCCO2	-16	-8	101	103
CCNC(=O)Nc1nc2ccccc2s1	1	7	103	98

A second format for five compounds above.
Values in the order: Mtb MenB inh, Mtb MbtI inh, Polio RdRp inh, Polio RdRp inh intensity
CC(C)Cc1cc(C(=O)O)nc(=O)[nH]1
 : 38*, 8, 99, 99
NC(N)=Nc1nc(=O)c2ccccc2s1
 : -11, 10, 100, 105
O=C(ON1C(=O)c2ccccc2C1=O)c1ccco1
 : -21, -52, 102, 98
CCN(CC)S(=O)(=O)c1ccc(Br)cc1
 : x, -12, 105, 106
O=C(O)C1Cc2ccccc2N1C(=O)c1ccccc1 (configuration not stated)
 : 3, 4, 104, 103

Continued.
SMILES	Mtb MenB inh	Mtb MbtI inh	Polio RdRp inh	Polio RdRp inh intensity
CCN(CC)S(=O)(=O)c1ccc2c(c1)CCCN2	1	26	106	113
O=C(CC1(O)OC(c2ccccc2)=CC1=O)c1ccccc1 (configuration not stated)	-169	-2	97	104
CC(Nc1nc2ccccc2s1)C(=O)NN (configuration not stated)	-10	10	102	100
Cc1ccc2c(c1)N(CC(=O)N(Cc1cccnc1)C1CCCC1)C(=O)C(C)O2 (configuration not stated)	-47	-4	105	99
O=C(O)c1ccc(N2C(=O)CSC2=S)cc1	-115	34	101	106
N#Cc1c(NC(=O)CSc2ccccn2)sc2c1CCCC2	8	x	103	106
O=c1[nH]c2c(s1)C1c3c(ccc4ccccc34)OCC1CS2 (configuration not stated)	8	96	100	106
CCCCC(=O)NC1=NC(=O)C(C)(C)S1	-6	2	101	102
COc1ccc(NC(=O)C2CCN(C(=O)C3CC(=O)N(c4ccc(C)cc4)C3)CC2)cc1 (configuration not stated)	-25	-9	102	102
Cc1cc(C(=O)COc2cc3ccccc3cc2C(=O)N2CCOCC2)c(C)n1Cc1ccco1	-6	2	101	107
CN(C)c1cccc(C(=O)OCc2c(F)cccc2Cl)c1	-9	-37	112	108
COc1ccc(CCN2COc3cc4c(cc3C2)OCO4)cc1	2	0	102	103
c1ccc(OCCSc2nnc3c4ccccc4nc(-c4ccccc4)n23)cc1	-22	x	99	102
CC1CCN(C(=O)c2cccc3c2SCCC3=O)CC1	-26	-7	104	107
CC(C)C1OC(c2cccc(NC(=O)c3ccc(F)cc3)c2)OCC1(C)C (configuration not stated)	-29	x	107	106
O=C(Cc1cccs1)Nc1ccccc1	-24	-12	101	100
O=C1c2sc3nc4ccccc4n3c2C(=O)N1c1cc(Cl)ccc1Cl	-13	2	96	112
COc1ccccc1/C=C/C=N/n1c(C)nnc1C	x	15	101	104
CC(=O)N(C(C)=O)c1ccc2nc(C)[nH]c(=O)c2c1	-13	-186	101	103
COc1ccc(Cc2nnc(-c3ccc(C)cc3)o2)cc1OC	-20	-4	103	100
Cc1ccc(C)c(NC(=O)c2cc(C)nn2-c2ccccc2)c1	-7	0	101	98
Cc1ccc(-c2csc(NC(=O)CCNC(=O)c3ccco3)n2)cc1	-101	-5	104	103
O=C(OCC(=O)N1CCCC1)c1ccc(-c2ccc(C(=O)OCC(=O)N3CCCC3)s2)s1	13	9	104	106
O=C(NCc1ccco1)c1ccccc1NS(=O)(=O)c1ccc(F)cc1	2	-115	99	102
C[n+]1cc2c3c(ccc2c2ccc4cc5c(cc4c21)OCO5)OCO3	-15&4	-8	101&100	103&99
Continuation:
SMILES	Mtb MenB inh	Mtb MbtI inh	Polio RdRp inh	Polio RdRp inh intensity
O=C(NCC1CCN(Cc2cccc(Cl)c2)CC1)Nc1ccc2c(c1)OCCO2	0	-7	101	101
O=C(CCCn1sc2ccccc2c1=O)N1CCCC1	7	24	103	104
CC(N=Cc1c(O)[nH]c2ccccc12)c1ccccc1 (configuration not stated)	-11	6	102	102
CC(=O)N1CCc2cc(NC(=O)Nc3cccc(Cl)c3)ccc21	-23	-3	100	103
COc1ccc(-c2cc(=Nc3ccc(O)cc3)c3cc(C)ccc3o2)cc1	-43	1	104	104
O=C1C2C3c4ccccc4C(c4ccccc43)C2C(=O)N1Cc1ccccn1 (configuration not stated)	-28	-2	101	100
CC(=O)Nc1cccc(C(=O)OCc2ccccc2)c1	-8	-16	100	101
CC(C)CN1CCOC(CNC(=O)NC2CCCCC2)C1 (configuration not stated)	-10	2	101	99
CCc1ccc(NC(=O)C(C)OC(=O)/C=C/c2ccco2)cc1 (configuration not stated)	-4	6	101	99
CCCCn1c2nc3ccccc3nc2c2c(N)ncnc21	-2	0	105	108
CN(Cc1cccs1)C(=O)c1nc(-c2ccccc2)n(-c2ccccc2)n1	-36	-6	106	111
CCCn1c(=NC(=O)C(C)(C)C)sc2c(OC)ccc(OC)c21	-2	-9	100	106
N#Cc1cc(Sc2ccc(Cl)cc2)c(-n2nnc3ccccc32)cc1C#N	-28	-1	107	123
O=C(O)COc1ccc(Br)cc1CO	-7	5	98	101
CCN1C(=O)C(=C2C=C(C)N(CCO)C(C)=C2)C(=O)N(CC)C1=S	-75	-7	103	107
Cc1cccc(NC(=O)C23CCC(C)(C(=O)O2)C3(C)C)c1 (configuration not stated)	x	-15	102	105
C=CCC1(CC=C)CCCCN1	-12	x	104	117
N#CC1(C#N)C2CCCCC23OC(=N)C1(C#N)C(Cc1ccccc1)O3 (configuration not stated)	1	x	126	137
Cn1ccnc1SCC(=O)Nc1ccc(C#N)cc1	x	-6	105	106
CC(=O)NC12CC3CC(C1)CC(C(=O)OCC(=O)N1CCC(c4ccccc4)=N1)(C3)C2	-31	19	94	91
CCNc1cc(N2CCC3(CC2)OCCO3)c2noc3c2c1C(=O)c1ccccc1-3	-5	-2	75	195
COc1ccc(N2CCN(S(=O)(=O)c3ccc(-n4[nH]c(=O)c5ccccc5c4=O)cc3)CC2)cc1	9	1	101	105
O=C(CCc1nc2ccccc2s1)OCc1ccccc1	x	-9	100	97
CCCN(C(=O)c1cc2cc3ccc(OC)cc3nc2s1)c1ccc(CC)cc1	-19	-5	100	106
Cc1cccc(C(=O)NCCC(=O)N2CCc3ccccc3C2)c1	12	9	99	100
Additional results
SMILES	Mtb MenB inh	Mtb MbtI inh	Polio RdRp inh	Polio RdRp inh intensity
Cc1nnc(SC(C)C(=O)N(C)C2CCCCC2)n1N (configuration not stated)	-7	-3	101	107
CC1=C(C(=O)OC2CCCC2)C(c2coc3ccc(C)cc3c2=O)C2=C(CC(c3ccco3)CC2=O)N1 (configuration not stated)	-10	-7	101	102
Brc1ccc(-c2nnc3sc(CN4CCc5ccccc54)cn23)cc1	-19	4	100	105
O=C(Nc1cccc(-c2nn[nH]n2)c1)c1cccc(C(F)(F)F)c1	-15	12	102	102
Cc1ccc2oc(=O)ccc2c1	-16	-9	102	98
Cn1ccsc1=NC(=O)c1ccc(OC(F)(F)F)cc1	-6	-320	103	103
COc1ccc(Br)cc1C1SCCN1S(=O)(=O)c1ccc(Cl)c(Cl)c1 (configuration not stated)	-43	2	104	107
CCOC(=O)N1CCC(NS(=O)(=O)c2ccc(C#N)cc2)CC1	-18	14	104	103
COc1ccc(C(=O)N(c2ccc(OC)cc2)S(=O)(=O)c2ccc(C)cc2)cc1	-35	x	107	108
CCCC(=O)Nc1ccc(N2CCCCC2C)cc1 (configuration not stated)	-15	-18	104	103
CC(=O)NC1C(=O)Nc2ccc(F)cc21 (configuration not stated)	-7	x	103	110
Cc1ccc(NC(=O)CC(NCC2CCCO2)C(=O)O)cc1 (configuration not stated)	-4	2	105	101
COc1ccc2c(c1)C(C)=CC(C)(C)N2C(=O)Cn1cnc2c(cnn2-c2ccccc2)c1=O	-11	-2	101	104
C=CCn1c(C)nnc1SCCN1C(=O)c2ccccc2S1(=O)=O	-24	9	x	x
Cc1ccccc1NC(=O)c1cnn2c(C(F)(F)F)cc(-c3ccco3)nc12	-24	-6	98	97
Cc1ccc(S(=O)(=O)NC(CC(=O)NC2CCCC2)c2ccco2)cc1 (configuration not stated)	-2	4	102	102
O=C(CS(=O)(=O)c1cn(Cc2cccc(F)c2)c2ccccc12)NC1CCCCC1	-9	-10	100	97
Cc1cc(C)n(C(=O)Cc2cccs2)n1	x	-6	101	106
CC1CCC(N(C)C(=O)COC(=O)c2ccc(-n3cncn3)cc2)CC1 (configuration not stated)	-4	3	99	107
O=C(O)/C(=C/c1ccc(F)cc1)c1cccs1	x	0	102	98
CCCNC(=O)Cc1c(C)nc2cc(-c3ccccc3)nn2c1C	-8	-10	104	107
O=C(Oc1c(Br)cc(Br)c2cccnc12)N1CCOCC1	-24	7	102	105
Cc1nn(-c2cccc(Cl)c2)nc1C(=O)NC1CCCCCC1	2	-5	x	x
O=C(O)C(O)c1ccc(F)cc1 (configuration not stated)	-16	-8	100	103
N#C/C(=C(\OCc1nnc(-c2ccccc2)o1)C(F)(F)F)c1nnc2n1CCCCC2	-13	-9	105	111

Single entries from the results shown:
Polio RdRp inh, `COc1ccc(C(=O)N(c2ccc(OC)cc2)S(=O)(=O)c2ccc(C)cc2)cc1` reads 107
Mtb MbtI inh, `CCOC(=O)N1CCC(NS(=O)(=O)c2ccc(C#N)cc2)CC1` reads 14
Polio RdRp inh, `Cc1ccc2oc(=O)ccc2c1` reads 102
Mtb MbtI inh, `CCCNC(=O)Cc1c(C)nc2cc(-c3ccccc3)nn2c1C` reads -10
Polio RdRp inh, `N#C/C(=C(\OCc1nnc(-c2ccccc2)o1)C(F)(F)F)c1nnc2n1CCCCC2` reads 105
Mtb MenB inh, `O=C(O)C(O)c1ccc(F)cc1` (configuration not stated) reads -16
Mtb MenB inh, `O=C(Oc1c(Br)cc(Br)c2cccnc12)N1CCOCC1` reads -24

(cont.)
SMILES	Mtb MenB inh	Mtb MbtI inh	Polio RdRp inh	Polio RdRp inh intensity
Cc1cc2occ(CC(=O)OCC(=O)c3ccc4c(c3)NC(=O)CO4)c2cc1C	-16	-10	106	106
CC1CCCCN1C(=O)COC(=O)c1ccc2ccccc2n1 (configuration not stated)	5	13	102	106
CCCCN(C)S(=O)(=O)c1ccc(-c2cc(C(F)(F)F)no2)s1	-42	-16	102	104
CCOC(=O)c1sc(N)c(C#N)c1COC(=O)Cc1n[nH]c(=O)c2ccccc12	-25	1	45	241
COC(=O)Nc1nc2ccc(C(=O)c3ccccc3)cc2[nH]1	-9&0&-3	-5&0	101&103&99	109&102&99
O=C(Nc1c[nH]c2ccccc12)NC1CCCC1	-1	-9	105	104
COc1ccc(CCN(Cc2cc3cc(C)ccc3[nH]c2=O)C(=O)N2CCCC2)cc1OC	20	8	102	103
CC1CCCCC1NC(=O)c1ccc2ccccc2n1 (configuration not stated)	8	3	108	110
CC(C)(C)N=Cc1nc(-c2ccccc2)oc1O	x	2	100	94
CC1(O)CS(=O)(=O)CC1(C)O (configuration not stated)	-15	-1	x	x
O=S1(=O)CC2SC(=S)N(c3cccc(Br)c3)C2C1 (configuration not stated)	-4	9	99	90
CN(Cc1cccnc1)C(=O)CNC(=O)c1ccc(Cl)cc1Cl	2	-2	102	108
Cc1ccc2oc(-c3ccc(Cl)cc3)cc(=O)c2c1	-17	x	105	105
C=CCN1C(=O)/C(=C\c2ccc(O)c(OC)c2)C(=O)NC1=S	-72	35	102	103
C1CCC(OCC2CCCN3CCCCC23)CC1 (configuration not stated)	3	x	101	94
Cc1cc2nn(CN3CCCC(C)C3)c(=S)n2c2ccccc12 (configuration not stated)	-28	24	100	98
CCN(CC(=O)Nc1ccc(NC(C)=O)cc1)C(=O)C1CCCC1	-14	-4	101	109

High-throughput results from PubChem BioAssay.

Compounds were not picked by outcome; about 1.7% have a hit in one of these screens.
